KCNQ2 inh: KCNQ2 potassium channel inhibitors, primary screen, cell-based, CHO-K1, FluxOR thallium flux, B-score (AID 2156); 310,000 tested, 1.1% active; B-score at 10 µM; 20 min; stronger effect = lower value; only compounds with negative scores are shown here; some inactives read as strong as hits; Potassium voltage-gated channel subfamily KQT member 2 (Rattus norvegicus), O88943;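 active means fluorescence ratio B-score at most minus 3 library SDs, with starting brightness B-score within 2 library SDs, cut at about -5.5 in these data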
Target sequence (O88943 whole entry, looked up): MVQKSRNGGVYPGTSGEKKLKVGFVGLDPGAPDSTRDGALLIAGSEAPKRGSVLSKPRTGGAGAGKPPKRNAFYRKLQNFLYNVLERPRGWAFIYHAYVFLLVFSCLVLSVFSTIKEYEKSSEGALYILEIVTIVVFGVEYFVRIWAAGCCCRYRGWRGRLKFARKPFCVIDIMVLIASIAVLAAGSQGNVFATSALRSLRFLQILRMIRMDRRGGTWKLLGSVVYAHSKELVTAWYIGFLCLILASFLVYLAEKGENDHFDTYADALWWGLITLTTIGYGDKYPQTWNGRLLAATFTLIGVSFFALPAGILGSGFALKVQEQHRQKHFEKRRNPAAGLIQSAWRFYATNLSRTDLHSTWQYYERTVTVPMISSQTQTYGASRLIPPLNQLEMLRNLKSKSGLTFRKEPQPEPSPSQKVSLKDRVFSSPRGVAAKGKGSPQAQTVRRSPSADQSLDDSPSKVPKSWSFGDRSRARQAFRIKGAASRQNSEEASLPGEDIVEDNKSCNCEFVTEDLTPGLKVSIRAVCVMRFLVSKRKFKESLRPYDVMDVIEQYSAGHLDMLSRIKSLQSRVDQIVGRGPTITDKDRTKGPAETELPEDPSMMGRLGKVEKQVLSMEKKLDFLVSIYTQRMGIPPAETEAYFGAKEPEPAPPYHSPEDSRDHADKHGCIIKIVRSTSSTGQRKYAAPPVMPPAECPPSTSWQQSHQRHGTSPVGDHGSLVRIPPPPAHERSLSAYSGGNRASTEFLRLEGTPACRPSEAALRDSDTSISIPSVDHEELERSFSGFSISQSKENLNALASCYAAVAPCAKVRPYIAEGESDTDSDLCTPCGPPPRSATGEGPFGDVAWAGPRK
KCNQ2 inh baseline: recorded beside KCNQ2 inh, whose call it bears; B-score; measured here: initial fluorescence intensity artifact check;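 brightness before thallium and not channel activity; 0 = typical well and far values either way flag optical interference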
An asterisk follows results filed as active; i = inactive. The list is partial; rates above refer to the full screens.

SMILES	KCNQ2 inh	KCNQ2 inh baseline
CC1=Nn2c(nnc2-c2ccccc2)SC1	i	1.6
N#Cc1nc(-c2cccc3ccccc23)oc1NCC1CCCO1 (stereo not drawn)	i	0.3
CCCCC(=O)Nc1ccccc1C(=O)OCC(=O)c1ccc2c(c1)OCCO2	i	-1.3
Cn1cc(CNCc2ccc(OC(F)(F)F)cc2)c(-c2ccc3c(c2)OCCO3)n1	i	-0.95
COc1cccc(-c2nc(CS(=O)(=O)CC(=O)NC3CCCCCC3)c(C)o2)c1	i	1.6
Cc1cc(C)c2c(n1)sc1c(O)cc(=O)[nH]c12	i	-1.2
CCN1CCCc2cc(CN(CCN3CCOCC3)C(=S)Nc3cc(F)cc(F)c3)ccc21	i	-0.82
COc1cc(NS(=O)(=O)c2ccc(C)cc2)c2ncccc2c1	i	-4.1
O=C(c1ccc2c3c(cccc13)CC2)N1CCN(c2ncccn2)CC1	i	-0.77
CN1CCc2c(sc(NC(=O)c3ccc(S(=O)(=O)N4CCCCCC4)cc3)c2C(N)=O)C1	i	0.62
COc1ccccc1CC(=O)N1CCN(c2cccc(C(F)(F)F)c2)CC1	i	0.1
CC(C)OC(=O)CC(=O)CSc1nc(-c2ccc(F)cc2)cc(-c2ccccc2)c1C#N	i	0.65
CCOC(=O)COc1cc(OCC(=O)OCC)c2c3c(c(=O)oc2c1)CCCC3	i	-1.5
Cc1occc(=O)c1OCc1c(F)cccc1Cl	i	1.5
CC1=C(C)C(c2ccccc2)NC(=S)N1 (stereo not drawn)	i	1.2
CCC(C)(C)NC(=O)C(c1ccc(F)cc1)N(Cc1ccco1)C(=O)c1snc(C(N)=O)c1N (stereo not drawn)	i	0.04
C/C(=N\NC(=O)C(=O)Nc1cccc(Cl)c1C)c1ccncc1	i	1
C=CCOc1nc2sc(C)c(C)c2c(=O)n1-c1ccccc1	i	0.16
Cc1cc(=O)oc(C)c1C(=O)N1CCN(c2ccc(F)cc2)CC1	i	0.09
COc1ccc(C2Nc3ccccc3C(=O)N2NC(C)=O)c(OC)c1 (stereo not drawn)	i	-0.06
CCOc1cc(-c2conc2N)cc(OCC)c1OCC	i	1.4
Cc1oc(-c2ccccc2Cl)[n+]([O-])c1C	i	2.5
CC(=O)Nc1nc(CC(C)C)cc2c1c(=O)oc1ccccc12	i	-0.82
O=C(N[C@H](C(=O)O)c1ccccc1)C1CCC(Cn2nnc3ccccc3c2=O)CC1 (stereo partly drawn)	i	0.8
O=C(CCN1C(=O)/C(=C/c2ccccc2F)SC1=S)Nc1cccnc1	i	1.4
N#CC(c1ccccc1)N(CCCCl)C(=O)c1ccccc1 (stereo not drawn)	i	-0.95
O=c1nc2s/c(=C\c3ccc(-c4ccccc4[N+](=O)[O-])o3)c(=O)n2nc1-c1ccccc1	i	2
CC(C)=NN/C(N)=N/C(=S)Nc1ccc(C)cc1	i	0.48
COc1ccc(C2Nc3ccccc3C(=O)N2NS(C)(=O)=O)cc1 (stereo not drawn)	i	-1.1
COc1ccc(CCCC(=O)NC2CCCCC2C)c(C)c1 (stereo not drawn)	i	0.65
CCOc1ccc(S(=O)(=O)N2CCCC(C(=O)N3CCOCC3)C2)cc1C (stereo not drawn)	i	-2
CC(=O)Nc1cccc(N2C(=O)CC(N3CCC(C(=O)N4CCCCC4)CC3)C2=O)c1 (stereo not drawn)	i	1.4
CN1CCN(C(c2cc3cc4c(cc3[nH]c2=O)OCCO4)c2nnnn2C2CCCC2)CC1 (stereo not drawn)	i	-0.48
O=C(O)c1cccc(S(=O)(=O)N2CCN(c3ccccn3)CC2)c1	i	-0.19
O=C(Cc1ccccc1)Nc1ccc(S(=O)(=O)N2CCOCC2)cc1	i	-0.98
O=C(NCCCc1ccccc1)c1ccc(CS(=O)Cc2ccccc2Cl)o1 (stereo not drawn)	i	1.5
Cc1cc(C)c2c(c1)/C(=N/Nc1ccc(S(N)(=O)=O)cc1[N+](=O)[O-])CCC2	i	-0.47
COc1ccc(CCN(Cc2cccs2)S(=O)(=O)c2ccc(S(=O)(=O)N(C)C3CCCCC3)cc2)cc1OC	i	-0.16
CCOC(=O)/C=C1\CN(CCC(C)C)S(=O)(=O)c2ccccc21	i	-1.1
CCOC(=O)CCC(=O)N1CCOCCOCCN(C(=O)CCC(=O)OCC)CCOCCOCC1	i	1.8
Cc1ccc(-n2c(-c3c(-c4ccccc4)noc3C)n[nH]c2=S)cc1	i	0.32
O=C(Nc1ccccc1F)c1ccc(CN2CCN(c3ccccc3)CC2)cc1	i	0.91
CS(=O)(=O)N1CCN(C(=O)c2cc(-c3ccncc3)nc3ccc(Cl)cc23)CC1	i	0.15
O=C1CCSc2ccc(Cl)cc2N1Cc1cccc(Cl)c1	i	1.7
O=C1c2cccnc2C(=O)N1Cc1ccc(S(=O)(=O)N2CCN(c3ccc(Cl)cc3)CC2)cc1	i	0.12

A stretch from the list above, as a working copy:
SMILES	KCNQ2 inh	KCNQ2 inh baseline
O=C1CCSc2ccc(Cl)cc2N1Cc1cccc(Cl)c1	i	1.7
O=C1c2cccnc2C(=O)N1Cc1ccc(S(=O)(=O)N2CCN(c3ccc(Cl)cc3)CC2)cc1	i	0.12

Going on with the list:
SMILES	KCNQ2 inh	KCNQ2 inh baseline
O=C(CSc1nc2ccccc2n1CC(=O)N1CCCC1)NCc1ccc2c(c1)OCO2	i	0.4
O=S(NC1CCCCC1)C12CC3CC(CC(C3)C1)C2 (stereo not drawn)	i	1.5
O=C1c2ccccc2C(Nc2cccnc2)N1Cc1ccccc1Cl (stereo not drawn)	i	0.02
CCOC(=O)c1ccc(NC(=S)Nc2ccc3[nH]c(=O)[nH]c3c2)cc1	i	-1.2
C=C(C)CN(CC)C(=O)CSc1nc2ncc(Cl)cc2[nH]1	i	1.9
COc1ccc(Cl)cc1NC(=O)C1CCCN(c2ncnc3c2nc2n3CCCCC2)C1 (stereo not drawn)	i	-0.13
COc1ccc(C(C)=O)cc1COc1ccccc1[N+](=O)[O-]	i	1.3
COC(=O)C/C=C/[C@@H](C)[C@@H](/C=N/OC[C@H]1O[C@H](c2ccccc2)C=C[C@@H]1Oc1ccc(OC)cc1)NS(=O)(=O)c1ccc(C)cc1	i	-1.1
O=C(NCC1CCCCC1)c1cc(S(=O)(=O)N2CCCCC2)ccc1N1CCOCC1	i	-1.9
COc1cccc(-c2ccc(-c3noc(-c4ccccc4F)n3)c(OC)n2)c1	i	-0.93
COc1cc(Cl)c(C)cc1NC(=O)c1cccc(OC)c1OC	i	-2.1
Oc1c(Cl)cc(Cl)cc1CNn1cnnc1	i	-1.6
CNC(=O)Nc1ccc2nc(C)sc2c1	i	1
COc1ccc(C(=O)NC(=S)Nc2ccc([N+](=O)[O-])cc2C)cc1OC	i	0.01
COc1cccc(NC(=O)COC(=O)CCn2c(C)csc2=O)c1	i	1.4
COc1cccc(C(=O)OCn2nnc3ccccc3c2=O)c1	i	2.1
Cc1cc(Br)ccc1OCC(=O)NC1CCCC1	i	0.37
COC(=O)CCSCC(=O)N1N=C(c2ccc(Br)cc2)CC1c1cccc(OC)c1OC (stereo not drawn)	i	0.32
O=C(CSc1ncccn1)NCc1ccccc1Cl	i	1.7
COC(=O)C(C)(C)ONC(=O)Nc1ccccc1Cl	i	-0.57
COc1ccccc1C1CC(=O)n2c(nc(-c3ccccc3)c2-c2ccccc2)S1 (stereo not drawn)	i	0.37
Cc1nc(-c2cccc(S(=O)(=O)N3CCC(C)CC3)c2)cs1	i	0.36
CC1c2nc3ccccc3n2C(CC(=O)NCCCN2CCOCC2)C(=O)N1Cc1ccccc1 (stereo not drawn)	i	2.5
CC1(c2nnc(-c3ccc(F)cc3)o2)CC(c2ccc(Cl)cc2)=NO1 (stereo not drawn)	i	-1.2
CCC(C)C(=O)OCC1(c2ccc(C)cc2OC(=O)C(C)C)CO1 (stereo not drawn)	i	-0.32
CC1CCN(C(=S)NC(=O)C2CCCCC2)CC1	i	1
FC(F)(F)Oc1ccc(Nc2nc3ccccc3o2)cc1	i	-0.35
COC(=O)/C(=C\c1ccc2c(c1)c1ccccc1n2C)NC(=O)c1ccccc1	-7.6*	0.48*
CCOc1cc(NC(=S)NCC2CCCO2)c(OCC)cc1NC(=O)c1ccc(C)cc1 (stereo not drawn)	i	0.25
COc1ccc(CCNC(=O)C(=O)NCC2OCCN2S(=O)(=O)c2ccccc2)cc1 (stereo not drawn)	i	0.97
O=C1C2CC=CCC2C(=O)N1CC1CCCO1 (stereo not drawn)	i	-1.1
Cc1ccc2c(c1)N(C(=O)CCC(=O)NCc1cccc(Cl)c1)CC(C)O2 (stereo not drawn)	-5.7*	-1.3*
COc1cc(C)c(C(C)C)cc1S(=O)(=O)N1CCN(C)CC1	i	0.02
S=c1[nH]nc(CN2CCCC2)n1Cc1ccccc1	i	-1.2
COc1ccc(OC)c(C2=NOC(C(=O)Nc3cccc(C(C)=O)c3)C2)c1 (stereo not drawn)	i	-1.1
Cc1nnc(NC(=O)c2ccc(-c3ccc(Cl)cc3)o2)s1	i	-0.19
Cc1cc(C)n(-c2nc(SCCN(C)C)c3c4c(sc3n2)CCCC4)n1	-8.9*	-1.4*
COc1ccc(OC)c(NC(=O)CN(C)CCOc2ccc(Br)cc2)c1	i	-1.6
Cc1ccc(NC(=O)CSc2nc(=O)n(CCCN(C)C)c3c2CCC3)c(C)c1	i	0.76
CCc1cc2c(=O)c(-c3ccc4c(c3)OCCO4)coc2c(CN2CCCCC2C)c1O (stereo not drawn)	i	2.4
CC1(C(=O)Nc2c(F)c(F)c(F)c(F)c2F)CC1(Br)Br (stereo not drawn)	i	-1.6
COCCN(C(=O)COC(=O)Cc1cccc2ccccc12)c1c(N)n(Cc2ccccc2)c(=O)[nH]c1=O	i	-0.21
O=C(CCl)Nc1cc(-c2ccccc2)nn1-c1ccccc1	i	-2.8
COc1ccc2c(c1)CCc1c(C(=O)N3CC4(C)CC3CC(C)(C)C4)noc1-2 (stereo not drawn)	i	1
C/C(=N\NC(=O)c1ccc([N+](=O)[O-])cc1)c1cc2ccccc2oc1=O	i	1.6

16 compounds out of the list, ordered by length of the SMILES, high to low:
SMILES	KCNQ2 inh	KCNQ2 inh baseline
COCCN(C(=O)COC(=O)Cc1cccc2ccccc12)c1c(N)n(Cc2ccccc2)c(=O)[nH]c1=O	i	-0.21
C/C(=N\NC(=O)c1ccc([N+](=O)[O-])cc1)c1cc2ccccc2oc1=O	i	1.6
COc1ccc(CCNC(=O)C(=O)NCC2OCCN2S(=O)(=O)c2ccccc2)cc1 (stereo not drawn)	i	0.97
COC(=O)/C(=C\c1ccc2c(c1)c1ccccc1n2C)NC(=O)c1ccccc1	-7.6*	0.48*
Cc1ccc(NC(=O)CSc2nc(=O)n(CCCN(C)C)c3c2CCC3)c(C)c1	i	0.76
COc1ccc(OC)c(C2=NOC(C(=O)Nc3cccc(C(C)=O)c3)C2)c1 (stereo not drawn)	i	-1.1
Cc1cc(C)n(-c2nc(SCCN(C)C)c3c4c(sc3n2)CCCC4)n1	-8.9*	-1.4*
CCC(C)C(=O)OCC1(c2ccc(C)cc2OC(=O)C(C)C)CO1 (stereo not drawn)	i	-0.32
CC1(C(=O)Nc2c(F)c(F)c(F)c(F)c2F)CC1(Br)Br (stereo not drawn)	i	-1.6
COc1cc(C)c(C(C)C)cc1S(=O)(=O)N1CCN(C)CC1	i	0.02
Cc1nnc(NC(=O)c2ccc(-c3ccc(Cl)cc3)o2)s1	i	-0.19
O=C(CCl)Nc1cc(-c2ccccc2)nn1-c1ccccc1	i	-2.8
FC(F)(F)Oc1ccc(Nc2nc3ccccc3o2)cc1	i	-0.35
S=c1[nH]nc(CN2CCCC2)n1Cc1ccccc1	i	-1.2
CC1CCN(C(=S)NC(=O)C2CCCCC2)CC1	i	1
O=C1C2CC=CCC2C(=O)N1CC1CCCO1 (stereo not drawn)	i	-1.1

(list continues)
SMILES	KCNQ2 inh	KCNQ2 inh baseline
Cn1c(SCc2ccccc2C#N)nnc1-c1ccncc1	i	0.1
O=C(OCCN1C(=O)c2ccccc2C1=O)c1cc(S(=O)(=O)N2CCOCC2)ccc1Cl	i	-0.3
CCOC(=O)/C(C#N)=C/c1cc(C)n(-c2ccc(C)cc2)c1C	i	1.3
Cn1c(N)c(C(C[N+](=O)[O-])c2ccccc2Cl)c(=O)n(C)c1=O (stereo not drawn)	i	0.96
O=C(C1=C(O)C(=O)N(Cc2ccccc2)C1c1ccco1)c1ccco1 (stereo not drawn)	i	-0.34
Cc1cc(OCc2nc(-c3cccs3)no2)cc(C)c1Cl	i	0.32
CCOc1cc(/C=N/Nc2ncc(C)c(=O)[nH]2)ccc1O	i	0.02
Brc1ccc(-c2csc(N/N=C/c3ccco3)n2)cc1	i	-1.7
CCOC(=O)C1C(=O)C=C(c2cccs2)CC1c1ccccc1 (stereo not drawn)	i	-4.3
COc1ccccc1/C=C/CN1CCN(c2ccccc2)CC1	i	5.8
Cc1ccc2[nH]c(=O)c3cc(C(=O)N(CCCOC(C)C)Cc4ccco4)sc3c2c1	i	0.83
Cc1ccc(S(=O)(=O)c2ccc([N+](=O)[O-])cn2)cc1	-6*	0.07*
CN(C)CC(O)COC(c1ccc(Cl)cc1)c1ccc(Cl)cc1 (stereo not drawn)	i	-1.6
CN1C(=O)/C(=C/c2ccc(C(F)(F)F)cc2)Sc2ccc(C(=O)N3CCN(c4ccccn4)CC3)cc21	i	-0.02
CCC(CC)NC(=O)COC(=O)c1cc(Br)ccc1Cl	i	0.69
COc1cc(NS(=O)(=O)c2ccc(NC(=O)CN3C(=O)c4ccccc4C3=O)cc2)ncn1	i	0.34
COc1ccc(C(=O)N2CCCCC2C(=O)Nc2ccc(-n3nc(C)cc3C)cc2)o1 (stereo not drawn)	i	0.03
COc1ccc(CNCC(O)(c2ccccc2)c2ccccc2)cc1	i	0.14
O=C(NC1CCC(NC(=O)C(F)(F)C(F)F)CC1)C(F)(F)C(F)F (stereo not drawn)	i	-2.5
c1ccc(CC2CNc3ccccc3CN2)cc1 (stereo not drawn)	i	1.1
CCOC(=O)NC(=S)c1ccc[nH]1	i	0.88
Cc1ccc(NC2CCCN(C(=O)CCC3(C)CC3)C2)cc1C (stereo not drawn)	i	0.06
O=C(Nc1ccc(-c2cscn2)cc1)C1CCCN(Cc2ccccc2)C1 (stereo not drawn)	i	-0.86
